NPYLR7 agonist – activates Aedes aegypti NPYLR7 receptor; HEK293T NPYLR7/Galpha15, GCaMP6s calcium fluorescence; activation, % at 10 µM; 270,000 compounds, 0.15% hits; AID 1259423; in the data active = activation above about 40%;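 also: 0% = vehicle and 100% = reference agonist at the receptor; some compounds past the cut are filed as inactive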
NPYLR7 agonist max-min – also measured in NPYLR7 agonist; calls as there; activation, %; measured here: Max-Min RFU normalised activation; some inactives read as strong as hits;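 span of the calcium signal over five minutes; 0% = vehicle and 100% = native peptide agonist; compound fluorescence can raise it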
The depositor's hits bear a star; & = joins results of further samples. An excerpt; count on the stated rates, not on these rows.

SMILES | NPYLR7 agonist | NPYLR7 agonist max-min
Fc1ccc(-c2cc3c(SCc4ccccc4F)nccn3n2)cc1 | 3.9 | 3.7
Cc1nnc(COc2ccc(NC(=O)c3ccn[nH]3)cc2)o1 | 2.2 | -0.7
COC(=O)c1cc(C#N)c(=O)n(CC(O)COc2cc(Cl)ccc2Cl)c1 (stereo not given) | 8.1 | 4.3
Cc1ccc(-c2cc(C(=O)N3CCN(c4ccccc4F)CC3)n(-c3ccccc3)n2)cc1C | -3.8 | -2.6
Cc1ccc(-n2c(Cc3ccccc3)nnc2SCc2ccc(C(=O)NCc3ccco3)cc2)cc1 | 7.2 | 12.6
Cc1noc(C)c1C(=O)NC(c1ccc(Cl)cc1)C(C)C (stereo not given) | -7.8 | -9.9
O=C(COCc1ccccc1)N(Cc1cccc(OS(=O)(=O)c2cccc(C(F)(F)F)c2)c1)Cc1ccco1 | -2.9 | 4.4
Cc1c(C)n2c3c(=O)n(CC(C)C)c(=O)n(C)c3nc2n1CCCN1CCOCC1 | 17.6 | 9.6
Cc1ccc(-c2cc(C(=O)O)n(-c3ccccc3Cl)n2)cc1C | 6.9 | 15.8
COCC(=O)N1CCSC12C(=O)N(Cc1cccc(OC)c1)c1ccc(C)cc12 (stereo not given) | 4.9 | 9.0
Cc1ccc(-n2c(CCC(=O)NCCc3cccs3)cc3c2-c2ccccc2OC3)c(F)c1 | -1.3 | -3.6
COc1ccc(S(=O)(=O)NCC2CCCN(C(=O)c3cccc(C)n3)C2)cc1 (stereo not given) | 5.0&-4.4 | 7.1&-5.6
CCC1CN(C(=O)CN2CCCC2c2cnn(C)c2)CCO1 (stereo not given) | 3.3&-3.5 | 2.4&-7.6
Cc1cc(C)nc(NN=C2C=C(N3CCCC3)CC(C)(C)C2)n1 | -5.5 | -0.8
NC(=O)C1(N2CCCCC2)CCN(S(=O)(=O)c2ccc(Cl)s2)CC1 | 5.8 | 1.1
COC(=O)NC(=O)c1c(NC(=O)c2ccc(C#N)cc2)sc(C)c1C | 16.9 | 14.0
Cc1ccc(NC(=O)CNC2(CN3CCOCC3)CCCC2)c(C)c1 | 3.9 | -7.4
Cc1ccsc1CN(Cc1ccc(F)cc1)C(=O)CN(CCN1CCOCC1)C(=O)Nc1ccc(F)c(Cl)c1 | -12.4 | -18.1
O=C(NCCSc1ccc(Br)cc1)c1ccncc1 | -2.7 | 2.7
COc1cccc(CNc2nn[nH]n2)c1OCc1ccccc1F | -12.1 | -17.2
COc1ccc(C2(CNC(=O)CC3C(=O)NCCN3C(C)C)CCCC2)cc1 (stereo not given) | 2.9 | 2.2
CN(C)C(=O)c1nc2ccc(Cl)cn2c1CNCCCn1ccc2ccccc21 | 0.8 | -2.1
COc1ccc(-c2noc(C3CCN(C(=O)c4c(F)cccc4F)CC3)n2)cc1 | 29.0 | 15.0
CCC(CC)n1ncc(C)c1NC(=O)c1ccc(-c2noc(C3CC3)n2)cc1 | 2.8 | 11.2
NC(=O)c1ccc(-c2nnn(Cc3cc(Cl)cc4c3OCOC4)n2)cc1 | -1.9 | -4.8
Cc1ccccc1C(=O)Nc1ccc(C(=O)N2CCCC(N(C)C)c3ccccc32)cc1 (stereo not given) | 4.2 | 6.1
CCCc1nc(C)sc1C(=O)Nc1ccc(C(C)C)cc1 | -16.0 | -20.4
O=C(NNC(=O)C1COc2ccccc2O1)c1cccc(C(F)(F)F)c1 (stereo not given) | 3.8 | -0.4
CCOC(=O)Cn1c(=NC(=O)c2cccc([N+](=O)[O-])c2)sc2c(C)cc(C)cc21 | 5.4 | 4.2
CCOc1ccc(NC(=O)C(C)(C)C)cc1S(=O)(=O)N1CCCCC1 | -6.3 | -7.3
O=C(CSc1nc2ccccc2s1)Nc1ccccc1C(=O)O | -7.7 | -13.8
Cc1ccc(-n2cnc(C(=O)N(C)c3cccc(Cl)c3)n2)cc1 | 0.6 | -2.0
COc1ccc(N2C(=O)CSC2c2ccc(NC(=O)C3CCCC3)cc2)c(OC)c1 (stereo not given) | 23.7 | 35.0
O/N=C1/CC/C(=N/O)c2nn(-c3ccc(Cl)cc3Cl)nc21 | 0.7 | 1.3
COc1ccccc1-c1cc(C(=O)N2CCCC2)n2nc(-c3ccc(Cl)cc3)cc2n1 | 16.1 | 20.1
COc1cccc(C=C2SC(=S)N(C)C2=O)c1OC(C)C | 12.6 | 10.0
O=C(Cc1cccc2ccccc12)N1CCOC2(CNCCOC2)C1 (stereo not given) | -1.2 | -0.4
CCC(Sc1nnnn1-c1ccc(C)cc1)C(=O)Nc1cc(C)on1 (stereo not given) | 12.0 | 4.3
CSc1nnc2[nH]c(=O)c3c(n12)CCCC3 | -4.3 | -10.8
CCOc1ccccc1C(=O)N1CC(=O)N(Cc2c(OC)cccc2OC)CC(O)C1 (stereo not given) | 13.3 | 21.7
CCOC(=O)N1CCN(CC(=O)N2N=C(c3cccc(F)c3)CC2c2ccc(OC)cc2)CC1 (stereo not given) | -8.3 | 7.0
CC(C)/C(Cl)=N\OC(=O)Nc1ccc(C#N)cc1 | 6.9 | 6.5
Cc1cc(C)c(S(=O)(=O)N(C)C(=O)c2ccc(C(N)=O)cc2)c(C)c1 | -24.8 | -24.9
COc1cc(C(=O)Nc2cccc(-c3cccc(-c4ccc(F)cc4)n3)c2)cc(OC)c1OC | -3.7 | -7.5
O=C(CCc1ccccc1)N1CCCC(OCc2ccc(C(F)(F)F)cc2)C1 (stereo not given) | -1.4 | 5.6
Cc1cccc(-c2nc3ccc(Br)cn3c2NC2CCCCC2)c1 | -4.2 | 0.9
CCc1nc2c(OCCOc3ccccc3)cccn2c1N(C)C(=O)c1cccs1 | 4.4 | -10.5
CC(C)(C)c1ccc(-c2ccnc(N3CCN(S(=O)(=O)c4cccc(Cl)c4)CC3)n2)cc1 | 7.5 | 2.8

Shown with tabs: 4 of the compounds above.
Structure	NPYLR7 agonist	NPYLR7 agonist max-min
O=C(Cc1cccc2ccccc12)N1CCOC2(CNCCOC2)C1 (stereo not given)	-1.2	-0.4
CCC(Sc1nnnn1-c1ccc(C)cc1)C(=O)Nc1cc(C)on1 (stereo not given)	12.0	4.3
CSc1nnc2[nH]c(=O)c3c(n12)CCCC3	-4.3	-10.8
CCOc1ccccc1C(=O)N1CC(=O)N(Cc2c(OC)cccc2OC)CC(O)C1 (stereo not given)	13.3	21.7

An excerpt from above in order of length of the SMILES, low to high:
SMILES | NPYLR7 agonist | NPYLR7 agonist max-min
CSc1nnc2[nH]c(=O)c3c(n12)CCCC3 | -4.3 | -10.8
CCCc1nc(C)sc1C(=O)Nc1ccc(C(C)C)cc1 | -16.0 | -20.4
O=C(CSc1nc2ccccc2s1)Nc1ccccc1C(=O)O | -7.7 | -13.8
COc1cccc(C=C2SC(=S)N(C)C2=O)c1OC(C)C | 12.6 | 10.0
Cc1cccc(-c2nc3ccc(Br)cn3c2NC2CCCCC2)c1 | -4.2 | 0.9
CCC(Sc1nnnn1-c1ccc(C)cc1)C(=O)Nc1cc(C)on1 (stereo not given) | 12.0 | 4.3
Cc1ccc(-n2cnc(C(=O)N(C)c3cccc(Cl)c3)n2)cc1 | 0.6 | -2.0
CCOc1ccc(NC(=O)C(C)(C)C)cc1S(=O)(=O)N1CCCCC1 | -6.3 | -7.3
NC(=O)c1ccc(-c2nnn(Cc3cc(Cl)cc4c3OCOC4)n2)cc1 | -1.9 | -4.8
CCOc1ccccc1C(=O)N1CC(=O)N(Cc2c(OC)cccc2OC)CC(O)C1 (stereo not given) | 13.3 | 21.7
COc1ccc(N2C(=O)CSC2c2ccc(NC(=O)C3CCCC3)cc2)c(OC)c1 (stereo not given) | 23.7 | 35.0
Cc1cc(C)c(S(=O)(=O)N(C)C(=O)c2ccc(C(N)=O)cc2)c(C)c1 | -24.8 | -24.9
Cc1ccccc1C(=O)Nc1ccc(C(=O)N2CCCC(N(C)C)c3ccccc32)cc1 (stereo not given) | 4.2 | 6.1
COc1ccccc1-c1cc(C(=O)N2CCCC2)n2nc(-c3ccc(Cl)cc3)cc2n1 | 16.1 | 20.1
CCOC(=O)N1CCN(CC(=O)N2N=C(c3cccc(F)c3)CC2c2ccc(OC)cc2)CC1 (stereo not given) | -8.3 | 7.0
CCOC(=O)Cn1c(=NC(=O)c2cccc([N+](=O)[O-])c2)sc2c(C)cc(C)cc21 | 5.4 | 4.2
CC(C)(C)c1ccc(-c2ccnc(N3CCN(S(=O)(=O)c4cccc(Cl)c4)CC3)n2)cc1 | 7.5 | 2.8

Additional entries follow:
SMILES | NPYLR7 agonist | NPYLR7 agonist max-min
COc1ccc(C(C)=O)cc1Cn1c(C)c(C(=O)NCc2ccc3c(c2)OCCO3)sc1=O | -9.2 | -9.4
CC(=O)N1CCc2ccc(NC(=O)CCc3ccc(C)cc3)cc2C1 | -0.3 | -3.9
O=C(CN(C1CCCCC1)S(=O)(=O)/C=C/c1ccccc1)N1CCc2sccc2C1c1ccc(Cl)cc1Cl (stereo not given) | 14.9 | 22.8
COc1cc(C(C)=O)ccc1OCc1nc(-c2ccccc2C)no1 | 5.4 | 2.1
COc1ccc(/C=C2\N=C(SC)SC2=O)cc1OC | 5.3 | 5.6
COCc1nc(-c2cccc(CN3CCN(C(=O)c4cccc(OC(F)F)c4)CC3)c2)no1 | 1.6 | -0.9
O=C1NCC2(CCCN(C(=O)c3cnc(Nc4ccccc4)nc3)CC2)O1 (stereo not given) | 9.4 | 7.1
O=C(CSc1nnc(-c2ccco2)o1)N1CCSc2ccccc21 | 20.4 | 12.2
Cc1ccc(-n2c(SCC3CCOCO3)nc3sc4c(c3c2=O)CCC4)cc1 (stereo not given) | 2.5 | -0.4
COC(=O)[C@H]1C[C@@H](O)CCN1C(=O)c1cc(C(C)C)oc1C | -1.6 | -5.7
Clc1ccc(CSC2=NCCN2)cc1 | 8.4 | 4.7
COCCNCc1cccc(OS(=O)(=O)c2ccc(OC)cc2)c1 | 2.7 | 7.3
Cc1ccc(-n2c(C(C)N(CC(C)C)C(=O)CCc3ccccc3)nc3ccccc3c2=O)cc1C (stereo not given) | 13.7 | 16.1
Cc1cc(C(=O)N(Cc2cccnc2)c2nc3ccccc3s2)on1 | 8.0 | 8.0
CCN(Cc1ccccc1)C(=O)CNC(=O)c1cccc(NC(C)C(C)C)c1C (stereo not given) | -2.1 | -8.2
CC(C)(C)OC(=O)N1CCCC(NCc2ccccc2)C1 (stereo not given) | 9.8 | 5.7
Cc1cnccc1NCCNC1CCN(CC(C)C)CC1 | 1.9 | -3.4
Cn1nc(C(F)(F)F)c(Cl)c1C(=O)N1CCCC1Cn1cccn1 (stereo not given) | 7.7 | 3.8
CCCCCCOc1ccccc1-c1nc2ccccc2c(=O)n1Cc1ccc(F)cc1 | 1.6 | -0.7
O=C(CSc1nnnn1C1CC1)Nc1ccc(N2CCCCCC2)cc1 | -0.4 | 1.6
Cc1cc(=O)[nH]c(SCCOc2ccc(Br)cc2Cl)n1 | 11.4 | 2.9
CCN(CC)c1ccc(/C=C2\CCC(C=NNC(=O)Nc3ccccc3)=C2N2CCOCC2)cc1 | 2.0 | -2.0
CCc1cc(Oc2ccccc2OC)nc(SCc2cccc(OC)c2)n1 | -1.0 | 7.3
CCCN(Cc1nccn1C)C(C)C(=O)Nc1ccc(C)cc1 (stereo not given) | 13.3 | 7.0
CC1=C(C(=O)N2CCCC(N3CCN(Cc4ccc5c(c4)OCO5)CC3)C2)OCCO1 (stereo not given) | 17.0 | 10.6
CN(C)CCCn1c2c(c(SCC(=O)Nc3ccc([N+](=O)[O-])cc3)nc1=O)CCC2 | -4.1 | -4.6
CCOC(=O)C1CCN(CC(=O)N2N=C(c3ccc(F)cc3)CC2c2ccc(OCC)cc2)CC1 (stereo not given) | -13.1 | -8.4
CN(CCO)c1ccc(C(F)(F)F)cn1 | 0.3 | -4.1
CCS(=O)(=O)Oc1ccc(Cl)cc1CN(CC(C)C)C(=O)c1ccccc1F | 15.7 | 8.9
CS(=O)(=O)c1ccc(-c2cccc(-n3cnnc3)c2)cc1 | -2.0 | -1.0
CCOC(=O)CSCCOc1ccc(C=C2C(=O)NC(=S)NC2=O)cc1OC | -12.1 | -15.2
Cn1c(=O)c2[nH]c(SCc3ccc(Cl)c(Cl)c3)nc2n(C)c1=O | -3.9 | -1.6
COc1cc(C)c(S(=O)(=O)NC2CC(C)(C)NC(C)(C)C2)cc1C(C)C | 4.4 | 5.2
COc1cc(S(=O)(=O)N2CCN(c3ccc(C)c(Cl)c3)CC2)c(OC)cc1Cl | 4.0 | 2.7
O=C(CSc1ncnc2c1oc1ccccc12)NCC1CCCO1 (stereo not given) | -5.6 | -8.4
CCOC(=O)C(Sc1nnc(CN2c3ccccc3Sc3ccccc32)o1)C(C)=O (stereo not given) | -2.9 | -4.0
Cn1c(Nc2ccc(F)cc2)nc2cc(-c3ccsc3)sc2c1=O | 8.7 | 6.7
CCOC(=O)c1c(NC(=O)CCc2ccccc2)sc(C(=O)Nc2ccccc2OC)c1C | -7.5 | -2.3
CCCCNC(=O)N1CCN(c2cc(Oc3ccc(C)cc3)ncn2)CC1 | -9.1 | -2.7
COc1cccc(Cn2cccc2CN(Cc2ccccc2)C(=O)CN(CC(C)C)C(=O)Nc2ccc(C)cc2)c1 | 1.4 | 5.8
O=C(Nc1nc(-c2ccc(Cl)cc2)cs1)C1CC(=O)N(C2CC2)C1 (stereo not given) | 6.4 | 0.2
O=S(=O)(c1ccc(F)cc1F)N1CCN(c2nc3nccc(-c4cc(Cl)ccc4Cl)n3n2)CC1 | 6.3 | 3.6
